Mtb hypoxia rep: inhibitors of hypoxia-regulated fluorescent reporter in Mycobacterium tuberculosis; M. tuberculosis hypoxia-regulated fluorescent reporter, fluorescence; fluorescence inhibition, % (concentration not given with the values); 0.1% of 300,000 active; AID 1159583;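 active = 35 to 45% if threefold the growth effect, above 45% if 1.5-fold the growth effect; inactive = the rest, general growth blockers included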;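 note: wells of about 50 µL received 100 nL stock; 0% = vehicle wells and 100% = reference inhibitor wells; whole bacteria with a GFP reporter of the hypoxia response; strong numbers were not always called active; many hits fall short of the cut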
PrP 5UTR inh: inhibition of PrP 5' UTR reporter expression. cell-based PrP 5' UTR mRNA reporter, plate reader. inhibition, % (concentration not given with the values). 0.35% of 340,000 active;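 active = every replicate at 50% or more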;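 note: 0 = median of the neutral control wells; tested in H4 reporter cells; numbers are from one replicate; inactives centre near -14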
BJeLR lethal: BJeLR cell viability loss; BJeLR (HRASV12) viability, CellTiter-Glo ATP luminescence, 48 h; reference of the scale not given here; inhibition, % (test concentration not listed); 0.17% of 300,000 active; AID 1554;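 active = replicate mean above 50%; inconclusive = above 50% but judged a plate artefact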;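 note: 50 nL library stock added to about 25 µL; numbers are from one replicate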
Sa ugtP lethal: compounds lethal to S. aureus RN4220 ugtP deletion mutant; OD600 growth, 16 h; some inactives read as strong as hits; growth inhibition, % (test concentration not listed); 0.54% of 330,000 active;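 active = z-score under -3 and OD600 up to 0.15 on both plates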;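 note: plate controls were untreated wells for no effect and antibiotic for full effect; wells of about 80 µL received 100 nL stock; the first replicate is given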
Autofluor counter: compound fluorescence in toxin protease inhibitor counterscreen. compound autofluorescence counterscreen, microsphere flow cytometry; hits give high values. fluorescence intensity (concentration not given with the values). 3.1% of 360,000 active;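 active = at least 3 SD above the mean of all compounds, about 16000 in these data; inconclusive = too few beads counted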;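 note: 100 nL of 1 mM stock went into each well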
Sa RN4220 lethal: kills Staphylococcus aureus RN4220 | S. aureus RN4220 growth, OD600, 16 h | inhibition, % (test concentration not listed) | 0.33% of 330,000 active | AID 1259311;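 active = z-score of -3 or lower and OD600 up to 0.18 on both plates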;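 note: plate controls were untreated cells for no effect and reference antibiotic for full effect; stock transfer was 100 nL into about 80 µL; one replicate is shown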
Mtb hypoxia rep growth: further read-out of Mtb hypoxia rep, marked with its call; growth inhibition, %; measured here: M. tuberculosis growth (absorbance);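 0% = vehicle and 100% = reference antibiotic; read after six days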
* marks the source's active call; other numbers are inactive results; & = joins results of further samples.

CN(C)CCCn1c(SCC(=O)Nc2sc3c(c2C#N)CCCC3)nnc1-c1ccncc1 was read as Mtb hypoxia rep 3, PrP 5UTR inh 2, BJeLR lethal 4, Sa ugtP lethal -2, Autofluor counter 9525, Sa RN4220 lethal 2.0 and Mtb hypoxia rep growth 7.
COc1ccc(-c2nc(NC(=O)c3n[nH]c(=O)c4ccccc34)sc2C)cc1 was read as Mtb hypoxia rep 7, PrP 5UTR inh 13, BJeLR lethal 33, Sa ugtP lethal -24, Autofluor counter 2343, Sa RN4220 lethal -0.3 and Mtb hypoxia rep growth -11.
O=C1C2C3C=CC(CC3)C2C(=O)N1/N=C/c1ccc(O)c(O)c1 (centres undefined) was read as PrP 5UTR inh -10, BJeLR lethal -5 and Autofluor counter 2280.
For Cc1cccc(NC(=O)NC2CCCCCCC2)c1 the results were PrP 5UTR inh -58, Sa ugtP lethal 13, Autofluor counter 5467 and Sa RN4220 lethal 2.0.
`NC(=NOC(=O)CCC1CCCCC1)c1ccc([N+](=O)[O-])cc1` gave Mtb hypoxia rep -5, Sa ugtP lethal -5, Sa RN4220 lethal 2.8 and Mtb hypoxia rep growth 9.
CCOC(=O)CSc1nnc(-c2ccccc2)c(-c2ccccc2)n1 was read as Mtb hypoxia rep -2, BJeLR lethal -1, Sa ugtP lethal 21, Autofluor counter 3063, Sa RN4220 lethal 5.5 and Mtb hypoxia rep growth -7.
For Cn1cc(C(F)(F)F)nc1-c1ccc(OCC(O)CNCCOc2ccc(O)c(C(N)=O)c2)cc1 (centres undefined) the results were Mtb hypoxia rep 2, PrP 5UTR inh -20, BJeLR lethal 0, Sa ugtP lethal 3, Autofluor counter 5729, Sa RN4220 lethal 3.2 and Mtb hypoxia rep growth 0.
Cc1ccc(OCC(O)CN2CCOCC2)cc1C (centres undefined) was read as Mtb hypoxia rep 5, PrP 5UTR inh -19, BJeLR lethal -3, Sa ugtP lethal 2, Autofluor counter 3949, Sa RN4220 lethal 2.9 and Mtb hypoxia rep growth 9.
COc1ccc(CNC(=O)CC(C)=NNC(=O)COc2ccc(Br)cc2)cc1 was read as Mtb hypoxia rep -2, Sa ugtP lethal 3, Sa RN4220 lethal 8.8 and Mtb hypoxia rep growth -11.
Screening Cc1cc(-c2ccc(C)c(S(=O)(=O)NCc3cccc(Br)c3)c2)on1 returned Mtb hypoxia rep 6, PrP 5UTR inh -14, BJeLR lethal 9, Sa ugtP lethal 13, Autofluor counter 5645, Sa RN4220 lethal -1.0 and Mtb hypoxia rep growth 5.
Screening N#Cc1ccc(OCC(=O)OCCCOC(=O)COc2ccc(C#N)cc2)cc1 returned Mtb hypoxia rep 20, PrP 5UTR inh -19, BJeLR lethal 1, Sa ugtP lethal 15, Autofluor counter 5889, Sa RN4220 lethal 1.9 and Mtb hypoxia rep growth 0.
For Cc1ccc2nc(Cc3ccc(N)cc3)[nH]c2c1 the results were Mtb hypoxia rep 19, PrP 5UTR inh -35, BJeLR lethal -4, Sa ugtP lethal 5, Autofluor counter 6723, Sa RN4220 lethal 5.3 and Mtb hypoxia rep growth 4.
OCC1(CC2CCCCO2)CCN(Cc2ccccc2-c2ccco2)CC1 (centres undefined) was read as Mtb hypoxia rep -4, PrP 5UTR inh 0, BJeLR lethal -15, Sa ugtP lethal 1, Autofluor counter 3539, Sa RN4220 lethal 6.4 and Mtb hypoxia rep growth -3.
Screening CCN(CC)C(=O)c1ccc(NC(=O)c2cccc(S(=O)(=O)N3CCN(Cc4ccccc4)CC3)c2)cc1 returned Mtb hypoxia rep -2, PrP 5UTR inh 2, BJeLR lethal 7, Sa ugtP lethal 7, Autofluor counter inconclusive, Sa RN4220 lethal 2.6 and Mtb hypoxia rep growth -3.
`CCCCCOc1ccc(C(=O)Nc2ccc(N3CCOCC3)cc2N2CCOCC2)cc1` gave Mtb hypoxia rep 16, PrP 5UTR inh -31, Sa ugtP lethal 0, Autofluor counter 3812, Sa RN4220 lethal 9.7 and Mtb hypoxia rep growth 8.
Screening Cc1ccc(NC(=O)N2CCc3ccccc3C2)cc1 returned Mtb hypoxia rep 14, PrP 5UTR inh -121, BJeLR lethal 1, Sa ugtP lethal 4, Autofluor counter 11674, Sa RN4220 lethal 3.7 and Mtb hypoxia rep growth 10.
`CC(C)c1cc(CNC(=O)C2CCC(=O)N(Cc3ccccc3F)C2)on1` (centres undefined) gave Mtb hypoxia rep -5, PrP 5UTR inh -1, BJeLR lethal 3, Sa ugtP lethal 6, Autofluor counter 6466, Sa RN4220 lethal 1.4 and Mtb hypoxia rep growth -4.
`CC1(C)CC(NC(=O)c2cc(S(=O)(=O)N3CCOCC3)ccc2Cl)CC(C)(C)N1` gave Mtb hypoxia rep 8, Sa ugtP lethal 3, Sa RN4220 lethal 5.0 and Mtb hypoxia rep growth 6.
`CC12CC3(C)CC(C)(C1)CC(C(=O)NC(=S)N1CCOCC1)(C2)C3` gave Mtb hypoxia rep 15, PrP 5UTR inh 7, BJeLR lethal -4, Sa ugtP lethal -10, Autofluor counter 8782, Sa RN4220 lethal 6.7 and Mtb hypoxia rep growth 4.
CCOc1ccc(/C=N/NC(=O)c2cc3c(OC)cccc3[nH]2)cc1 was read as PrP 5UTR inh -17, BJeLR lethal 11 and Autofluor counter 3838.
`O=C(NNC(=S)NCc1ccccc1)c1ccccc1OC(F)F` gave Mtb hypoxia rep 3, PrP 5UTR inh -18, BJeLR lethal 9, Sa ugtP lethal 5, Autofluor counter 2514, Sa RN4220 lethal 6.5 and Mtb hypoxia rep growth 7.
For OCCN(CCCn1c(C(F)(F)F)nc2ccccc21)c1nc(CN2CCCCC2)cs1 the results were Mtb hypoxia rep 2, PrP 5UTR inh -23, BJeLR lethal 0, Sa ugtP lethal 6, Autofluor counter 3692, Sa RN4220 lethal 6.1 and Mtb hypoxia rep growth 4.
Screening c1ccc(Oc2ccc(-c3ccnc4nc(N5CCOCC5)nn34)cc2)cc1 returned Mtb hypoxia rep -3, PrP 5UTR inh 8, BJeLR lethal 12, Sa ugtP lethal -7, Autofluor counter 3540, Sa RN4220 lethal 7.6 and Mtb hypoxia rep growth 10.
Oc1ccc(Cl)cc1-c1cc(-c2ccccc2Cl)[nH]n1 was read as Mtb hypoxia rep 12, PrP 5UTR inh -47, BJeLR lethal 2, Sa ugtP lethal -7, Autofluor counter 4280, Sa RN4220 lethal -5.6 and Mtb hypoxia rep growth 1.
COc1cccc(CN2C(=O)C3Cc4c([nH]c5ccccc45)C(C)(C)N3C2=O)c1 (centres undefined) was read as Mtb hypoxia rep 5&11, Sa ugtP lethal 9&-25, Sa RN4220 lethal 2.6&-3.8 and Mtb hypoxia rep growth -8&10.
For Cc1ccc(N(O)C(=O)NCCCCNC(=O)N(O)c2ccc(C)cc2)cc1 the results were Mtb hypoxia rep 2, PrP 5UTR inh -67, BJeLR lethal 5, Sa ugtP lethal 0, Autofluor counter 4063, Sa RN4220 lethal 6.1 and Mtb hypoxia rep growth 1.
Cc1ccc(Sc2c(C#N)c(-c3ccccc3)nn2C)cc1 was read as Mtb hypoxia rep 5, PrP 5UTR inh -18, BJeLR lethal 7, Sa ugtP lethal 18, Autofluor counter 8584, Sa RN4220 lethal 10 and Mtb hypoxia rep growth 6.
`O=C(NN=Cc1sc(N2CCOCC2)nc1-c1ccccc1)c1cccc(S(=O)(=O)N2CCOCC2)c1` gave Mtb hypoxia rep -11, Sa ugtP lethal 12, Sa RN4220 lethal 4.4 and Mtb hypoxia rep growth -1.
For Cc1csc(NC(=O)CSc2nnc(-c3cccnc3)o2)n1 the results were Mtb hypoxia rep 2, PrP 5UTR inh -36, BJeLR lethal -3, Sa ugtP lethal 1, Autofluor counter 6160, Sa RN4220 lethal 1.3 and Mtb hypoxia rep growth 2.
`CCC1C(=O)N=C(SCC(=O)Nc2ccc(C(=O)OC)cc2)NC1=O` (centres undefined) gave Mtb hypoxia rep 3, PrP 5UTR inh -1, BJeLR lethal 1, Sa ugtP lethal -8, Autofluor counter 9150, Sa RN4220 lethal 5.6 and Mtb hypoxia rep growth 8.
Screening NC(=O)C1CCN(C(=O)c2cc(-c3ccc(Cl)cc3)nc3ccccc23)CC1 returned Mtb hypoxia rep 6, PrP 5UTR inh -20, Sa ugtP lethal 4, Autofluor counter 3771, Sa RN4220 lethal -0.7 and Mtb hypoxia rep growth 5.
Cn1ccc(C(=O)OCC(=O)Nc2ccccc2Cl)n1 was read as Mtb hypoxia rep -13, PrP 5UTR inh -12, BJeLR lethal -18, Sa ugtP lethal -5, Autofluor counter 5374, Sa RN4220 lethal -1.7 and Mtb hypoxia rep growth -8.
`CN1C(=O)c2ccc(C(=O)NCc3ccccc3)cc2C1=O` gave Mtb hypoxia rep 3, PrP 5UTR inh -11, BJeLR lethal 2, Sa ugtP lethal 0, Autofluor counter 8445, Sa RN4220 lethal 3.9 and Mtb hypoxia rep growth 10.
`COC(=O)c1sc(NC(=O)/C=C/c2ccc(C)o2)nc1C` gave Mtb hypoxia rep 2, PrP 5UTR inh -125, BJeLR lethal 6, Sa ugtP lethal 10, Autofluor counter 2424, Sa RN4220 lethal 1.6 and Mtb hypoxia rep growth 3.
For CCOC(=O)c1cn2nc(Oc3ccc(OC)cc3)ccc2n1 the results were Mtb hypoxia rep 7, PrP 5UTR inh -21, BJeLR lethal -2, Sa ugtP lethal -4, Autofluor counter 5210, Sa RN4220 lethal 4.6 and Mtb hypoxia rep growth -6.
`COc1ccc(N(C(=O)CNC(=O)c2cccs2)C(C(=O)NCC2CCCO2)c2ccc(OC)c(OC)c2)cc1` (centres undefined) gave Mtb hypoxia rep 0, PrP 5UTR inh -20, BJeLR lethal -5, Sa ugtP lethal -1, Autofluor counter 5241, Sa RN4220 lethal 0.8 and Mtb hypoxia rep growth -10.

An excerpt from the list above:
For CCOC(=O)c1cn2nc(Oc3ccc(OC)cc3)ccc2n1 the results were Mtb hypoxia rep 7, PrP 5UTR inh -21, BJeLR lethal -2, Sa ugtP lethal -4, Autofluor counter 5210, Sa RN4220 lethal 4.6 and Mtb hypoxia rep growth -6.
`COc1ccc(N(C(=O)CNC(=O)c2cccs2)C(C(=O)NCC2CCCO2)c2ccc(OC)c(OC)c2)cc1` (centres undefined) gave Mtb hypoxia rep 0, PrP 5UTR inh -20, BJeLR lethal -5, Sa ugtP lethal -1, Autofluor counter 5241, Sa RN4220 lethal 0.8 and Mtb hypoxia rep growth -10.

The results go on.
Screening COc1ccccc1CNC(=O)C(NC(=O)Nc1ccccc1)C(C)C (centres undefined) returned Mtb hypoxia rep 12, PrP 5UTR inh -29, BJeLR lethal 4, Sa ugtP lethal 4, Autofluor counter 4107, Sa RN4220 lethal 2.3 and Mtb hypoxia rep growth 3.
Cc1ccc(CNC(=O)CC2Nc3c4ccccc4nc(=S)n3C2=O)cc1 (centres undefined) was read as Mtb hypoxia rep 0, BJeLR lethal -4, Sa ugtP lethal 2, Sa RN4220 lethal 6.3 and Mtb hypoxia rep growth 10.
For CCOc1cccc2sc(N(CCCN(C)C)C(=O)c3ccc(S(=O)(=O)N(C)CC4CCCO4)cc3)nc12 (centres undefined) the results were Mtb hypoxia rep -6, PrP 5UTR inh 3, BJeLR lethal 10, Sa ugtP lethal -9, Autofluor counter 4529, Sa RN4220 lethal -5.5 and Mtb hypoxia rep growth -5.
Screening O=C(NN=Cc1ccsc1)c1cc2ccccc2o1 returned Mtb hypoxia rep -1, Sa ugtP lethal 2, Sa RN4220 lethal 1.2 and Mtb hypoxia rep growth 7.
For COc1ccc(NC(=O)c2cc(F)c(F)cc2Cl)cc1Cl the results were Mtb hypoxia rep 7, PrP 5UTR inh -24, BJeLR lethal -2, Sa ugtP lethal 13, Autofluor counter 3767, Sa RN4220 lethal 2.0 and Mtb hypoxia rep growth -1.
For CON=CC(=NNc1ccc(OC)cc1)C(=O)c1ccc(OC)cc1 the results were Mtb hypoxia rep 9, Sa ugtP lethal 8, Sa RN4220 lethal 1.1 and Mtb hypoxia rep growth 5.
Screening CC(=O)c1cccc(NC2=NCC(C)S2)c1 (centres undefined) returned Mtb hypoxia rep 6, PrP 5UTR inh -20, BJeLR lethal -9, Sa ugtP lethal -8, Autofluor counter 5981, Sa RN4220 lethal -10.0 and Mtb hypoxia rep growth 14.
`O=S(=O)(c1ccccc1)N1CCN=C1SCc1ccc(Cl)c(Cl)c1` gave Mtb hypoxia rep 9, PrP 5UTR inh -28, BJeLR lethal -2, Sa ugtP lethal 7, Autofluor counter 2809, Sa RN4220 lethal -2.2 and Mtb hypoxia rep growth 4.
For CCOC(=O)N1CCN(C(=O)C2CCN(C(=O)c3ccc(C(C)(C)C)cc3)CC2)CC1 the results were Mtb hypoxia rep 7, PrP 5UTR inh -17, BJeLR lethal -3, Sa ugtP lethal 1, Autofluor counter 3866, Sa RN4220 lethal 2.8 and Mtb hypoxia rep growth -5.
